# MbtI inh – inhibitors of Mycobacterium tuberculosis siderophore enzyme MbtI. purified MbtI enzyme, fluorescence intensity read-out. inhibition, %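 (about 17 µg/mL by stock and volumes)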. actives 0.89% (n = 100,000). AID 493033;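 active = above 50% in both replicates, above 80% if mildly self-fluorescent; inactive = the rest, strongly fluorescent compounds included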;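 also: 0% = mean of negative and 100% = mean of positive controls; one replicate is shown; some compounds called inactive have numbers as strong as hits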
# Target sequence (P9WFX0 whole entry, looked up): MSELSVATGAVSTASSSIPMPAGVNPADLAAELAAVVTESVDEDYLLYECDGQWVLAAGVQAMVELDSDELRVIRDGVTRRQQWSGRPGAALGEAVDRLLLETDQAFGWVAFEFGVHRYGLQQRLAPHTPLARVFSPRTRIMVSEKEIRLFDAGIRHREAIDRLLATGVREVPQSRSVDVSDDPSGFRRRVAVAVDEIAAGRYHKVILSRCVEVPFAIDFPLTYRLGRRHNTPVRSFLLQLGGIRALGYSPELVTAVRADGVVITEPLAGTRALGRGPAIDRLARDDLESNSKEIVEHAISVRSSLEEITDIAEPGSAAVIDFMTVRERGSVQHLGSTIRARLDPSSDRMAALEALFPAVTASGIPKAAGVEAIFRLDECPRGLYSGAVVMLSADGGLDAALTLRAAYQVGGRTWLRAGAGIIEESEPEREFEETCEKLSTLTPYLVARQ
# Mtb MenB inh – inhibitors of Mycobacterium tuberculosis MenB enzyme; actives 0.43% (n = 100,000); MenB enzyme assay, absorbance read-out; some hits fall short of the stated cut; inhibition, %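 (about 12 µg/mL by stock and volumes)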; P9WNP5;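 active = mean of two replicates above 30%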;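 also: 0% = no compound and 100% = wells with inactive enzyme; the first replicate is given; strong numbers were not always called active; inactives centre near -10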
# Target sequence (P9WNP5 whole entry, looked up): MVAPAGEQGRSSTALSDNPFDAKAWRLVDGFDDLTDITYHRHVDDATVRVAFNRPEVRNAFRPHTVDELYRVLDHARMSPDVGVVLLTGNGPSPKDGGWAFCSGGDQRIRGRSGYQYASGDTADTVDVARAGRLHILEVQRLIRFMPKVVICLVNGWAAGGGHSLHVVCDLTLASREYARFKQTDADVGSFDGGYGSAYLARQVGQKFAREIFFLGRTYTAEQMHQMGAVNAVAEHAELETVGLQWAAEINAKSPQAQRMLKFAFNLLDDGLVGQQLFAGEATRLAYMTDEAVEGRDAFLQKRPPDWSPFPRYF
# Polio RdRp inh – poliovirus RNA polymerase inhibition; P03300; poliovirus polymerase elongation, fluorescence polarization; hits give low values; % elongation, % (compound at 16.7 µg/mL); actives 0.66% (n = 150,000); in the data active = % elongation below about 90%; also: some results filed as inactive read as strong as hits
# Polio RdRp inh intensity – second read-out of Polio RdRp inh, no call of its own (marks repeat the call); % elongation; measured here: total intensity read-out; formula for this scale not given here;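 total fluorescence in place of polarization; lower means less elongation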
# Starred values were filed as active, the others as inactive; i = inactive; / = no result given.
SMILES,MbtI inh,Mtb MenB inh,Polio RdRp inh,Polio RdRp inh intensity
CCN1C[C@]2(C)CC[C@H](O)[C@@]34C5C[C@@H]6[C@@H](OC)C[C@@](O)(C5[C@H]6O)[C@@H](CC23)[C@@H]14 (stereo partly specified),-3,-7,102,103
O=C1Nc2ccc(S(=O)(=O)NCc3ccc4c(c3)OCO4)cc2C1C1CCCC1 (stereo unspecified),23,-13,101,101
CCN1CCCC1CNC(=O)Nc1c[nH]c2ccc(OC)cc2c1=O (stereo unspecified),89,8,105,99
CCC/C(O)=C1/C(=O)CC(c2ccccc2)CC1=NCc1ccccc1 (stereo unspecified),-10,/,101,105
c1ccc2c3nnc4n(c-3nc2c1)CCS4,15,-24,103,99
CN(CC(=O)Oc1ccc2c(c1)OCO2)S(=O)(=O)c1ccc(F)cc1,-6,10,104,108
O=C(O)c1scc2c1OCCO2,22,-70,103,102
COC(=O)/C=C1\S/C(=N\S(=O)(=O)c2ccccc2)N(c2ccccc2)C1=O,-8,-3,102,104
COc1ccc(CCNC(=O)c2cnn3ccccc23)c(OC)c1OC,90,-14,101,96
CCOc1ccccc1C(=O)NCC(=O)O,1,/,102,106
CCCC(C)N1C(=O)CC(=O)NC1=S (stereo unspecified),16,-85,101,103
O=C(O)CC1Oc2ccccc2NC1=O (stereo unspecified),13,13,101,99
O=c1cc(C(F)(F)F)nc2c(-c3ccccc3)c(C(F)(F)F)[nH]n12,95,3,98,106
O=C(CCn1c(=O)sc2ccccc21)n1c(=O)sc2ccccc21,/,-20,75*,70*
Cc1cccc(NC(=O)Cc2csc(C)n2)c1,13,-19,108,118
Cc1ccc(-n2ncc3c(NC(C)C)ncnc32)cc1,124,-15,102,100
CC(C)Cn1c(SCC(=O)N(C)C2CCCCC2)nc2ccccc2c1=O,3,-18,103,106
CCN1CCN(C(=O)c2sc3nc4n(c(=O)c3c2C)CCC4)CC1,3,-14,101,101
Cc1[nH]n(-c2nc3ccccc3[nH]2)c(=O)c1C1OC(=O)c2ccccc21 (stereo unspecified),100*,-21,62*,56*
O=c1cc(O)c2sc3nc4c(c(C(F)(F)F)c3c2[nH]1)CCC4,-10,-133,105,102
O=C(N/N=C/c1ccccc1)c1cc(-c2ccccc2)n[nH]1,14,-26,102,103
CCOC(=O)c1c(/C=C2\C(=O)Nc3ccccc32)c(C)n(Cc2cccs2)c1C,7,10,100,102
Cc1ccccc1NS(=O)(=O)c1ccc2[nH]cc(C(=O)NC3CCCC3)c(=O)c2c1,-357,0,100,102
Cc1cc(=O)oc2c1cc(NC(=O)c1ccccc1)c1occ(OC(=O)c3ccccc3)c12,/,0,98,108
CC1CCCCC1NC(=O)COc1ncnc2sccc12 (stereo unspecified),2,3,111,110
N#Cc1c(-c2cccc(O)c2)c(C#N)c2nc3ccccc3n2c1N,/,-30,46,258
C=C(C)CSc1nc(C)cc(C)c1C#N,2,-43,99,101
CC(C)C(=O)Nc1c(C(=O)c2ccc(Br)cc2)oc2ccccc12,1,-5,100,102
COC(=O)N/N=C\c1c(C)n(C)c2ccccc12,5,1,102,103
Cc1nc(-c2ccc(S(=O)(=O)N3CCCN(C(=O)OC(C)(C)C)CC3)s2)cs1,9,7,96,102
CCSC1=C(C#N)C(=O)NC(c2ccc(O)cc2)S1 (stereo unspecified),28,-17,101,101
C/C(=N\O)c1cc2ccc(O)cc2oc1=O,-41,-158,93,129
Nn1c(-c2cccs2)n[nH]c1=S,74,-20,105,100
COC(=O)c1cc(S(=O)(=O)Nc2nn(C)c3ccccc23)oc1C,-8,-14,107,111
O=C(/C=C/c1cccs1)OCC(=O)c1cc2ccccc2o1,3,-34,111,117
CN1CCN(c2ccc(N)cc2)CC1,6,-1,97,95
c1cc2c(cc1NC1=NCCCCC1)OCCO2,/,-8,111,115
COCCn1c(CCC(=O)O)ccc1-c1ccccc1,110,-3,102,101
O=C(Cn1c(=O)n(-c2ccccc2)c(=O)c2sccc21)NCc1ccco1,-4,-9,101,104
COc1ccccc1C(=O)COC(=O)c1ccc(Br)cc1,-5,/,99,96
Fc1ccc(C2=NNC3=NCCN3C2)cc1F,1,-10,104,101
N#CC1(NC(=O)CSc2nnc(-c3cccs3)n2C2CC2)CCCCC1,-3,-7,99,97
O=S(=O)(c1ccccc1)c1nc(-c2ccco2)oc1Nc1ccccc1,-7,-23,100,103
C=CCN1C(=Nc2ccccc2)SC/C1=C\C(=O)OC,-4,-34,101,100
CCCCN1C(=O)c2ccc(C(=O)C(C#N)c3nc4ccccc4[nH]3)cc2C1=O (stereo unspecified),-4,-21,98,105
Cc1cc(C(=O)NCc2nnc3ccccn23)c(C)o1,1,-24,100,100
CCCn1nc2ccccc2c1P(=O)(N1CCOCC1)N1CCOCC1,4,-2,105,108
COC(=O)c1ccc2c(c1)sc1nc(-c3ccc(OC)cc3)cn12,/,13,94,99
O=C(N1CCC2(CC1)OCCO2)C(F)(F)F,-5,-32,103,99
COc1ccc(-c2c(C)oc3cc(OCCN4CCOCC4)ccc3c2=O)cc1,16,2,/,/
CCN(CC)C(=O)c1ccc(NC(=O)Cc2c[nH]c3ccccc23)cc1,-15,-14,113,127
O=C(Nc1nnc(-c2ccco2)o1)C1=COCCO1,28,-16,101,105
Cc1ccc(S(=O)(=O)N(C#N)c2nc(C)cc(C)n2)cc1,-61,-20,101,102
CCOC(=O)c1c(-c2ccccc2)csc1N,10,/,100,95
CCN1CCCC1CNC(=O)c1ccc(N(C)S(=O)(=O)c2ccc(C)cc2)cc1 (stereo unspecified),12,7,103,101
NC(N)=NC(N)=NCc1ccccc1,1,-2,101,107
Cc1ccccc1Cn1c2ccccc2c2cn[nH]c(=O)c21,1,-4,102,101
CC1(C)CC(=O)C=C(NNC(=O)c2cccnc2)C1,0,-29,101,96
CC(=O)NC(c1ccco1)c1c(O)ccc2ccccc12 (stereo unspecified),i,-8,99,100
O=S1(=O)CCC(Nc2ccccc2)C1 (stereo unspecified),-12,-4,106,105

# Additional records.
SMILES,MbtI inh,Mtb MenB inh,Polio RdRp inh,Polio RdRp inh intensity
Cc1nn(-c2ccccc2)c(C)c1-c1nc(-c2ccc(C(C)(C)C)cc2)no1,-8,-2,101,103
O=C1COc2ccc(C(=O)CSc3nnc(Cc4cccs4)n3Cc3ccco3)cc2N1,-5,-11,98,107
CCOC(=O)CNc1ncnc2onc(-c3ccc(F)cc3)c12,24,-31,106,99
CCOC(=O)c1cc(C(C)(C)C)oc1CN,-7,-14,102,103
Cc1ccc(NC(=O)NC2CC(=O)N(c3ccc4c(c3)OCCO4)C2)cc1C (stereo unspecified),-2,-2,105,104
Cc1ccc(C(=O)Oc2cccc(Cl)c2)cc1,-5,/,102,102
Cn1nnnc1Sc1c(-c2ccccc2)c2ccc(Cl)cc2[nH]c1=O,74,18,98,100
Cc1nn(-c2ccccc2)c2nc(-c3ccccc3)cc(C(=O)NCc3ccco3)c12,1,-2,/,/
COC(=O)c1c(C)oc2ccc(OC)cc12,-14,-21,103,97
O=C1CS/C(=N\N=C/c2ccccc2)N1,28,-10,99,103
O=C(CC1C(=O)N2CCNC2=C1C(=O)c1ccc(Cl)cc1)Nc1ccccc1 (stereo unspecified),2,-26,106,107
COc1cc(CN2CCSCC2)ccc1O,-10,-19,102,102
COC(=O)/C(=C/N(C)C)Sc1cc(C)c(Cl)cc1Cl,2,-6,104,91
COc1cccc(NC(=O)C(c2ccccc2)N2CC(C)OC(C)C2)c1 (stereo unspecified),11,-20,101,93
CC1CCCN(C(=O)CSc2nc3cc(Cl)ccc3o2)C1 (stereo unspecified),-19,-7,102,110
OCCNC1CCCc2ccccc21 (stereo unspecified),8,26,95,111
COc1ccc(C(O)C(F)(F)F)cc1 (stereo unspecified),-7,-38,100,100
COc1c2occc2c(OC)c2c(=O)cc(C(F)(F)C(F)(F)F)oc12,2,7,102,103
O=C(O)CCC(=O)N1N=C(c2ccccc2)CC1c1ccc2nccnc2c1 (stereo unspecified),15,50*,99,101
Cc1cc(C(=O)CSCCCn2c(=O)[nH]c3ccccc32)c(C)n1C1CC1,8,-4,104,95
CCN(C(=O)C1CCCO1)C1CCCCC1 (stereo unspecified),-16,-16,100,102
CCN1C(C)=C(C)S/C1=C1\SC(=S)N(C2CCCCC2)C1=O,-18,-4,97,104
Cc1ccc2nc(SCC(=O)NC(N)=O)[nH]c2c1,15,-16,99,104
C/C(=C\C(=O)c1ccccc1)NCc1ccccc1,1,-12,98,105
Clc1ncnc2c1ncn2C1CCCCO1 (stereo unspecified),/,-15,100,100
Cc1c(/C=C(\C#N)C(=O)O)cc(C#N)n1C,20,-6,96,98
Cc1ccc2c(c1)c1c(n2CC(O)CN2CCCCC2)C(=O)CCC1 (stereo unspecified),3,-24,100,105
Cc1ccc(CN(C)C(=O)CSc2nc(N)cc(N)n2)cc1,-1,1,103,111
COC(=O)C1=C(C)NC(=O)CC1C(=O)Nc1ccccc1 (stereo unspecified),-6,-43,102,100
CCN(CC)C(=O)COc1ccc2ccc(=O)oc2c1,-43,9,104,101
N#Cc1c(/N=C/c2cc(Cl)cc(Cl)c2O)sc2c1CCC2,/,5,110,113
COc1cc(C(=O)CSc2cccc[n+]2[O-])cc(OC)c1OC,96,-11,104,104
CN(Cc1ccccc1)c1nc(-c2ccccc2)no1,-3,-17,101,104
COc1ccc(C2NC(=O)N(C)C(C)=C2C(=O)Nc2ccccc2)cc1 (stereo unspecified),0,-6,101,102
O=C(CNS(=O)(=O)c1cccs1)N1CCCCC1,6,-14,98,101
CCC12CC3CC(Br)(C1)CC(C(=O)O)(C3)C2 (stereo unspecified),-4,/,103,108

# A second format for part of the listing above:
CN(Cc1ccccc1)c1nc(-c2ccccc2)no1
- MbtI inh = -3
- Mtb MenB inh = -17
- Polio RdRp inh = 101
- Polio RdRp inh intensity = 104
COc1ccc(C2NC(=O)N(C)C(C)=C2C(=O)Nc2ccccc2)cc1 (stereo unspecified)
- MbtI inh = 0
- Mtb MenB inh = -6
- Polio RdRp inh = 101
- Polio RdRp inh intensity = 102

# Next part.
SMILES,MbtI inh,Mtb MenB inh,Polio RdRp inh,Polio RdRp inh intensity
C=CCOc1cccc(C(=O)N2CCN(C)CC2)c1,-5,16,101,102
O=C(CSc1ncccn1)NN=C1CCCCCC1,-14,-18,104,102
O=C(CN(Cc1ccco1)C(=O)c1nsc(Cl)c1Cl)NC1CCCCC1,4,-34,102,103
CN(C)C(=O)CCc1nc2ccccc2n1-c1ccccc1,4,-7,98,104
Cc1sc2nc(CN3CCCC3)nc(Sc3nnnn3C3CC3)c2c1C,87,-10,94,98
O=C(O)c1ccc(CCO)s1,12,14,103,97
O=C(NC1CCCC1)c1ccc(S(=O)(=O)N2CCCCCC2)cc1,-5,/,102,103
N#CCn1c(Cc2ccccc2)nc2ccccc2c1=O,14,48*,101,104
NC(=O)COC(=O)C12CC3CC(CC(Br)(C3)C1)C2,-5,/,99,105
COc1cccc(NC(=S)N(CCC#N)/N=C/c2ccc3c(c2)OCO3)c1,4,-13,102,102
NC(=O)CSc1nc2cc(Cl)ccc2s1,6,13,100,102
Cc1noc(C)c1C(=O)N1CCc2sccc2C1c1ccc(C(F)(F)F)cc1 (stereo unspecified),-6,-12,102,112
CCN1CCN(Cc2ccc(N)cc2)CC1,/,-8,107,111
CCc1ccc2c(COC(=O)CSCc3c(C)noc3C)cc(=O)oc2c1,-5,-9,106,107
CCC(=O)NCc1ccc(-c2nc3ncccc3o2)cc1,90,-21,101,103
Cc1ccsc1/C=N/NC(=O)C1C2CCCCC21 (stereo unspecified),-7,-42,100,102
O=C(COc1ccc2ccccc2c1)N1CCN(Cc2ccncc2)CC1,-7,-2,100,99
CC(C)c1nc(N2CCN(C(=O)c3ccccc3)CC2)c(C#N)c2c1COC(C)(C)C2,0,-7,99,102
CC1CC(=O)c2ccc(O)cc21 (stereo unspecified),29,-22,/,/
O=C(NCc1ccc(Cl)cc1)c1ccc(Cn2c(=O)[nH]c3ccsc3c2=O)cc1,-3,-13,99,99
Nc1ccccc1-n1ccnc1,-9,-42,104,101
O=C(Nc1nncs1)c1ccccc1NS(=O)(=O)c1cccs1,31,3,97,100
CCN(CC)S(=O)(=O)c1ccc(C)c(C(=O)Nc2cc(C)on2)c1,0,-11,100,98
CC1=CC(=C2C(=O)NC(=S)NC2=O)C=C(C)N1CCc1ccccc1,-8,0,103,107

# Of the compounds above, these have an aryl thioether with sulfur outside any ring.
SMILES,MbtI inh,Mtb MenB inh,Polio RdRp inh,Polio RdRp inh intensity
CC(C)Cn1c(SCC(=O)N(C)C2CCCCC2)nc2ccccc2c1=O,3,-18,103,106
C=C(C)CSc1nc(C)cc(C)c1C#N,2,-43,99,101
N#CC1(NC(=O)CSc2nnc(-c3cccs3)n2C2CC2)CCCCC1,-3,-7,99,97
O=C1COc2ccc(C(=O)CSc3nnc(Cc4cccs4)n3Cc3ccco3)cc2N1,-5,-11,98,107
Cn1nnnc1Sc1c(-c2ccccc2)c2ccc(Cl)cc2[nH]c1=O,74,18,98,100
COC(=O)/C(=C/N(C)C)Sc1cc(C)c(Cl)cc1Cl,2,-6,104,91
CC1CCCN(C(=O)CSc2nc3cc(Cl)ccc3o2)C1 (stereo unspecified),-19,-7,102,110
Cc1ccc2nc(SCC(=O)NC(N)=O)[nH]c2c1,15,-16,99,104
Cc1ccc(CN(C)C(=O)CSc2nc(N)cc(N)n2)cc1,-1,1,103,111
COc1cc(C(=O)CSc2cccc[n+]2[O-])cc(OC)c1OC,96,-11,104,104
O=C(CSc1ncccn1)NN=C1CCCCCC1,-14,-18,104,102
Cc1sc2nc(CN3CCCC3)nc(Sc3nnnn3C3CC3)c2c1C,87,-10,94,98
NC(=O)CSc1nc2cc(Cl)ccc2s1,6,13,100,102

# Assay outcomes: PubChem BioAssay, ICCB-Longwood Screening Facility, Harvard Medical School
